PKD1 kinase inh: blocks activity of human protein kinase D1; PKD1 kinase fluorescence polarization assay; Q15139; actives 0.056% (n = 200,000); AID 797; inhibition, %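 (about 10 µM by stock and volumes)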;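 active means inhibition of 50% or more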;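 further: controls were vehicle for no effect and a reference inhibitor for full effect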
Target sequence (Q15139 whole entry, looked up): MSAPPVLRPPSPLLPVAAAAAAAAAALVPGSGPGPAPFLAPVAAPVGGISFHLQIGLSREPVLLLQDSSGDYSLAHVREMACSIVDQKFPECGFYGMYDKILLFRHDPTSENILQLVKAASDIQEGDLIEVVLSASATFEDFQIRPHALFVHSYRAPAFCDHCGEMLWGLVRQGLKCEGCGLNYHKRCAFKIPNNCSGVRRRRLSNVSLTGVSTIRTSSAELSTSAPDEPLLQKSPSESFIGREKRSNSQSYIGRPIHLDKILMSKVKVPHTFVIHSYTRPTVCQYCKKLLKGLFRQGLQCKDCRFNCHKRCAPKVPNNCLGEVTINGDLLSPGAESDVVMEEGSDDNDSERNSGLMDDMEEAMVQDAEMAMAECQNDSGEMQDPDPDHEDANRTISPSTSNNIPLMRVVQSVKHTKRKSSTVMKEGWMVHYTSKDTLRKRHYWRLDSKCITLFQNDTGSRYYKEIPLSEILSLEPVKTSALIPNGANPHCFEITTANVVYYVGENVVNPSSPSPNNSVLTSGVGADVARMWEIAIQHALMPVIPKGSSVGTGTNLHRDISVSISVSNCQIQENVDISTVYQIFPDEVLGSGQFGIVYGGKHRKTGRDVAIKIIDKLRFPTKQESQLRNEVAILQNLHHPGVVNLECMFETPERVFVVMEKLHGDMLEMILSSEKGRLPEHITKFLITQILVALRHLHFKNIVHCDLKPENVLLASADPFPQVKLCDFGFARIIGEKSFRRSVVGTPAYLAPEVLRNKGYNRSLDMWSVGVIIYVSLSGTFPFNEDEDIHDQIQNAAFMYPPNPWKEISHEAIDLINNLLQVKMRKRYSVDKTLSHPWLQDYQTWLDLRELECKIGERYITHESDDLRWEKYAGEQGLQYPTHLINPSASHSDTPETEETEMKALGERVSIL
INS promoter inh: TRM-6 insulin promoter activity inhibition. TRM-6 cells (human fetal islet line), insulin promoter-eGFP reporter, imaging; reporter expression induced with tamoxifen. inhibition, % at 2 µM. actives 0.9% (n = 130,000). AID 1273;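 active means inhibition above the mean plus 3 SD, with well images judged a real hit on visual review, cut at about 60% in these data, passing the limit was not always enough; inconclusive means inhibition over the cutoff but images rejected on review; inactive means inhibition not above the cutoff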
HSV replic up: HSV replication enhancement. maximum fold increase. actives 0.005% (n = 220,000). AID 1956. HSV replication augmentation in cells, fold increase;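 active means peak rise of 1.5-fold or more in the series; inconclusive means self-fluorescent or not available for retest; tested in PC3 cells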;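 further: first round at 10 µM; read as green reporter fluorescence; hits show the peak of a series up to 25 µM; 1 = signal of infected wells without compound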
RGS16-Gao HTS: modulates binding between human RGS16 and Galphao; O15492+P09471; actives 0.38% (n = 220,000); bead-based flow cytometry RGS16-Galphao binding, fluorescence; actives lie on both sides; binding response (% of control), % at 10 µM;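 active means below 25% or above 175%, edge rows of some plates excepted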;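 further: Galphao activated by GDP with aluminum fluoride before binding; 100% = wells without compound and 0% = beads without RGS; some results beyond the cut were filed as inactive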
GALR2 agonist: GALR2 (human) receptor agonism | O43603 | GALR2-expressing cells, agonist activation read-out | activation, %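 (tested at 5 µM)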 | actives 0.48% (n = 140,000) | AID 803;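 active means above mean plus 3 SD of all compounds, about 5% in these data, not always enough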;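 further: 0% = vehicle buffer wells and 100% = reference agonist at full effect; tested in CHO reporter cells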
INS promoter inh cell count: second read-out of INS promoter inh, no call of its own (marks repeat the call); normalized cell count, %; measured here: cell count, toxicity; reference of the scale not given here;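 cells exposed to compound for 48 h; stained nuclei by imaging scaled within each plate; lower means fewer cells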
HSV replic up primary fold: recorded beside HSV replic up, whose call it bears; fold increase; compound at 10 µM; measured here: primary screen fold increase 10 uM; tested in PC3 cells;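 GFP signal in the first replicate; 1 = infected wells without compound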
Numbers without * were called inactive; i = inactive; ? = inconclusive; · = no result given.

SMILES	PKD1 kinase inh	INS promoter inh	INS promoter inh cell count	HSV replic up	HSV replic up primary fold	RGS16-Gao HTS	GALR2 agonist
O=C(CN1CCN(c2ncc(C(F)(F)F)cc2Cl)CC1)NC(=O)NCc1ccccc1	3.0	-34.6	80.7	i	0.84	106.6	-1.6
S=C(Nc1ccccc1)N1CCn2cccc2C1c1cccnc1 (stereo unspecified)	-19.1	·	·	·	·	92.8	-0.4
Cc1[nH]nc(-c2ccc(OCc3cnn(-c4ccccc4)c3)cc2O)c1Oc1ccccc1F	0.7	·	·	i	0.9	100.5	-4.0
Nc1nonc1C(=O)NCCN=Cc1cc(Cc2ccccc2)cc(Br)c1O	-8.3	-114.3	116.4	·	·	107.9	-5.2
CCN1CCCC1CNC(=O)c1ccc(Sc2ccccc2Cl)c([N+](=O)[O-])c1 (stereo unspecified)	-0.6	28.6	143.3	i	0.77	101.8	·
CNC(=O)CCSc1ccc(C)cc1	-0.9	-3.8	99.0	i	1.06	94.8	-2.5
N=C1SCC(=O)N1c1nc(-c2ccccc2)cs1	6.4	·	·	i	0.81	100.3	-2.9
O=C1C2C(C(=O)N1CCN1CCN(Cc3ccc([N+](=O)[O-])cc3)CC1)[C@H]1C=C[C@@H]2C1 (stereo partly specified)	·	·	·	i	0.79	102.3	·
O=c1c2[nH]c3ccccc3c2ncn1Cc1ccncc1	-8.3	12.5	110.1	i	0.9	98.7	-1.1
CC12CN(C(=O)c3ccc([N+](=O)[O-])cc3)CC(C)(CN(C(=O)c3ccc([N+](=O)[O-])cc3)C1)C2=O	·	·	·	i	1.06	101.0	·
Cc1ccc(-c2c[nH]c(=S)n2-c2ccccc2)cc1	-6.5	·	·	i	0.92	87.6	·
Cc1ccc(NC(=S)N(CCN(C)C)Cc2cc3cccc(C)c3[nH]c2=O)cc1	2.3	-35.7	130.5	i	0.74	60.5	-0.3
CCOc1nc(NCCN2CCOCC2)nc(Nc2ccc([N+](=O)[O-])cc2)n1	-5.5	·	·	i	0.99	106.7	·
CC(=O)Nc1ccc(S(=O)(=O)Nc2cccc(-c3cn4c(n3)SCC4)c2)cc1	4.8	·	·	i	1	94.5	·
COC(=O)c1ccccc1NC(=O)NCc1cccnc1	-7.0	72.4	79.3	i	1	111.7	-2.8
COCCNC(=O)CN(c1ccc(C)cc1)S(=O)(=O)c1ccccc1	-14.8	-21.2	104.0	i	1	105.3	-1.9
COc1ccc(NC2=CC(c3ccccc3)N(c3ccc(OC)cc3)C2=O)cc1 (stereo unspecified)	·	·	·	i	1	95.4	·
CC/C(C)=N/Nc1ccc(S(=O)(=O)N2CCCC2)cc1[N+](=O)[O-]	-2.4	-70.0	94.6	i	0.92	106.1	-1.4
O=C(Nc1nnc(C2CCCC2)s1)C1CCC1	-10.6	3.1	108.3	i	0.953	109.7	1.3
Oc1ccccc1Cn1c(-c2ccccc2O)nc2ccccc21	-1.1	-36.4	65.1	i	1	100.9	2.2
Cc1ccc(NC(=O)CCC(=O)N/N=C/c2cc([N+](=O)[O-])ccc2O)cc1	-3.5	0.0	91.5	i	1.11	75.4	-2.5
c1ccc(Oc2cccc(CN3CCOCC3)c2)cc1	2.2	60.0	94.4	i	1.17	96.0	-0.2
COc1ccc(CN2C(=O)c3ccccc3C(/C=N\OCc3ccc(C)cc3)C2=O)cc1 (stereo unspecified)	9.6	-3.6	118.2	i	0.93	100.3	-2.3
CCC(=O)NC(=S)Nc1ccc(NC(=S)NC(=O)c2ccc(C)cc2)cc1	-4.3	·	·	i	0.98	99.6	·
O=C(c1cccs1)N1CCCC(c2nc3c(nnn3Cc3ccccc3)c(=O)[nH]2)C1 (stereo unspecified)	·	·	·	i	0.9	98.9	·
Cc1ccc(N(Cc2cc3ccc(C)cc3[nH]c2=O)C(=O)c2ccco2)cc1	·	·	·	i	0.93	88.2	·
COc1cc(/C=N/n2cnnc2)ccc1OC(=O)c1cccnc1	2.0	-13.2	90.2	i	0.74	91.0	-0.9
CC(C)NC(=O)CSc1nc2ccccc2n1CC(=O)N(C(C)C)C(C)C	-0.3	·	·	i	1.06	98.5	·
Cn1cccc1CNC(=S)Nc1ccccc1F	-0.8	·	·	i	1	103.0	·
c1cc2c(cc1-c1[nH]ncc1CN1C[C@H]3CC[C@H]1C3)OCO2	6.5	·	·	i	0.83	97.3	·
O=c1[nH]c2ccccc2c2nc3ccccn3c12	6.9	57.9	66.3	i	0.7	98.8	-0.8
CCOC(=O)CNC(=O)CSc1nc2nc(C)c(Br)cc2[nH]1	2.2	9.1	92.0	i	0.79	103.0	-0.1
CC(C)(C)c1ccc(-n2nc(C(N)=O)c(O)cc2=O)cc1	-2.4	-29.4	101.9	i	0.9	101.3	·
C[n+]1cnn2c1SCC1(COC1)C2	3.5	·	·	i	0.93	79.0	-0.9
COc1ccc(C(=O)c2c(C)c3cc(C)ccc3n2CC(O)CN2CCOCC2)cc1 (stereo unspecified)	-12.7	-18.8	87.1	i	0.85	112.1	0.2
OC(CNCc1ccc(-c2ccccc2)cc1)c1ccccc1 (stereo unspecified)	-5.6	·	·	i	0.77	100.9	·
O=C1CN(C(=O)CN2CCCC2)C(c2ccccc2)c2cc(Br)ccc2N1 (stereo unspecified)	-2.7	-43.2	83.3	i	0.85	99.7	-2.3
Cc1csc(C(C)N(C)C(=O)CCc2nnc(CCc3ccccc3)o2)n1 (stereo unspecified)	1.1	·	·	i	0.87	99.8	·
Cc1c(C(=O)N(Cc2ccccc2)Cc2cccs2)cnn1-c1ccc(Cl)cc1	·	·	·	i	1.15	101.1	·
CCCCCCN1Cc2ccccc2C1	-6.4	18.2	103.7	i	1.02	100.6	-1.1
O=S(=O)(c1ccc(Cl)cc1)N1CCn2c1nc1ccccc12	6.6	10.5	72.0	i	0.89	73.6	-1.9
COC(=O)c1ncccc1SC	0.2	-16.7	71.9	i	1.13	122.9	-0.2
CCc1cc2c(=O)c(-n3cnc4ccccc43)coc2cc1O	-5.2	·	·	i	0.86	108.4	-0.9
CC1CCN(c2c([N+](=O)[O-])nn(-c3ccc4c(c3)OCCO4)[n+]2[O-])CC1	4.0	·	·	i	0.84	104.3	-1.4
CCCN(CCC)C(=O)Cn1c(=O)n(CCCC(=O)NCc2ccco2)c(=O)c2sccc21	-3.4	·	·	i	0.99	97.0	·
Cn1cccc1/C=N/NC(=O)CSc1nc2ccccc2n1C	·	·	·	i	1.15	101.0	·
Cc1nc(N2CCN(S(=O)(=O)c3ccc(Br)cc3)CC2)c2c(C)c(C)sc2n1	-3.0	·	·	i	0.91	98.0	·
CC1CC(C)CN(C(=S)Nc2ccc(SC(F)F)cc2)C1 (stereo unspecified)	-1.9	·	·	i	1.09	105.1	0.3
Cc1cccc(S(=O)(=O)Nc2nc3ccccc3nc2NCc2ccc3c(c2)OCO3)c1	-2.0	·	·	·	·	104.5	-1.2
CC(=O)c1c(C)[nH]c(C(=O)NCc2ccccn2)c1C	1.6	·	·	i	0.91	105.4	-1.2

Carrying on.
SMILES	PKD1 kinase inh	INS promoter inh	INS promoter inh cell count	HSV replic up	HSV replic up primary fold	RGS16-Gao HTS	GALR2 agonist
O=C(c1ccccn1)N1N=C2/C(=C/c3ccccc3)CCCC2C1c1ccccc1 (stereo unspecified)	-13.0	0.0	99.8	i	0.99	156.5	-1.4
CCOC(CNC(=O)c1ccc2c(c1)ncn2-c1ccc(F)c(F)c1)OCC	-2.6	·	·	i	0.92	95.5	·
Cc1ccc2c(c1)C(c1ccc(N3CCOCC3)cc1)=NNC(c1cccs1)=N2	-1.9	18.2	110.0	i	0.84	101.6	-0.5
Cc1cc(OCC(=O)NCCO)ccc1Cl	-12.2	22.8	93.0	i	0.75	96.6	-1.8
O=C1N=c2ccccc2=C1c1sc(=S)n(NC(=O)c2cccc(O)c2)c1O	-3.8	50.0	79.3	i	1.02	100.4	·
COc1ccc(NC(=O)N2CCN(c3ccc([N+](=O)[O-])cc3)CC2)cc1	3.7	21.4	139.0	i	0.95	98.1	·
Cc1[nH]c2ccccc2c1CN1CCN(c2ccccn2)CC1	·	·	·	i	0.63	100.8	·
Cc1c(N=C2N=C(NC(=O)c3ccc(F)cc3)c3ccccc32)c(=O)n(-c2ccccc2)n1C	3.0	·	·	?	·	100.0	·
Cc1ccc(CNC(=O)c2coc(=O)c3ccccc23)o1	-5.5	-28.6	111.7	i	1.11	95.1	-0.9
COc1ccc2cc(CN(CCCN3CCOCC3)Cc3nnnn3C3CCCC3)c(=O)[nH]c2c1	7.4	-109.1	76.8	i	1.07	99.7	-0.9
CCN(CC)C(=O)C1CCN(S(=O)(=O)c2ccc(C3CNC(=O)C3)cc2)CC1 (stereo unspecified)	-5.2	·	·	i	1.08	105.4	-1.0
CCCN1CCN(C(=O)C2CCN(S(=O)(=O)c3ccc4c(c3)oc(=O)n4C)CC2)CC1	-3.6	·	·	i	0.87	25.1	-2.1
CCCC(=O)Nc1ccc(NC(=O)c2ccccc2)nc1	·	·	·	i	0.93	103.6	·
CCOC(=O)NC1(C(F)(F)F)C(=O)NC(C)=C1C#N (stereo unspecified)	7.9	-178.6	114.5	i	1.07	96.9	1.9
Cc1ccc(CNC(=O)/C(C#N)=C/c2ccc(C)s2)cc1	-4.4	46.7	70.2	i	0.94	101.1	-1.7
O=C(Nc1ccccc1)C1CC(=O)n2c(nc3ccccc32)N1 (stereo unspecified)	·	·	·	i	1.01	103.0	·
Cc1cc(NC(=O)CSc2nc3ccccc3[nH]2)n(-c2ccccc2)n1	·	·	·	i	0.97	98.4	·
CC(=O)NCCc1nc2ccccc2n1Cc1ccc(Cl)cc1	0.3	·	·	i	1.03	111.1	·
COc1ccc2c(c1)CCc1c-2nc2ccccc2c1N1CCOCC1	·	·	·	i	0.69	101.8	·
COc1cccc(OC)c1OCCCSc1nc(C)cc(=O)[nH]1	-3.9	-32.6	157.5	i	0.9	99.1	-2.4
COC(=O)CSc1nnc2c3c4c(sc3nc(-n3nc(C)cc3C)n12)COC(C)(C)C4	-4.4	·	·	i	0.97	100.8	0.7
CN(C)c1cccc(C(=O)N/N=C/c2ccccc2F)c1	-2.3	53.3	99.7	i	0.86	99.9	·
COc1ccc(NC(=O)CSc2nnnn2C)c([N+](=O)[O-])c1	2.4	42.9	115.0	i	1.01	101.4	·
COc1cccc(NS(=O)(=O)c2c(C)cc(C)cc2C)c1	-8.8	16.7	132.9	i	1.09	110.0	-1.5
Cc1c(NC(=O)CN2CC(C)OC(C)C2)c(=O)n(-c2ccccc2)n1C (stereo unspecified)	-4.1	·	·	i	0.73	96.7	-1.2
CCCC(=O)NC(=S)Nc1nc(-c2ccc(OC)cc2)cs1	12.3	8.8	158.0	i	0.82	97.8	0.7
Cc1ccccc1NC(=S)NNC(=O)c1cccc(Br)c1	6.0	·	·	i	0.92	99.5	·
CCOCCCNC(=O)C(c1ccc(Cl)cc1)N1CCN(C(=O)c2ccco2)CC1 (stereo unspecified)	3.5	-28.6	117.3	i	1.03	95.3	-0.7
CN(C(=O)CSc1nnnn1-c1ccccc1)C1CCCCC1	5.3	-30.8	91.2	i	0.99	93.7	-1.1
O=C1CCC2=C(CCCC2=O)N1	1.1	·	·	i	0.71	85.6	·
COc1ccc(N(CC(=O)Nc2cccc(N(C)S(C)(=O)=O)c2)S(=O)(=O)c2ccc(C)cc2)cc1	-2.7	·	·	i	0.98	97.0	·
CCCCNC(=S)NCCN1CCCCC1	1.8	-2.9	122.0	i	0.89	115.6	-0.9

Full records from above. Screens in order: PKD1 kinase inh	INS promoter inh	INS promoter inh cell count	HSV replic up	HSV replic up primary fold	RGS16-Gao HTS	GALR2 agonist
`O=C1CCC2=C(CCCC2=O)N1` is listed with 1.1	·	·	i	0.71	85.6	·
`CCCC(=O)NC(=S)Nc1nc(-c2ccc(OC)cc2)cs1` is listed with 12.3	8.8	158.0	i	0.82	97.8	0.7
`COc1ccc(N(CC(=O)Nc2cccc(N(C)S(C)(=O)=O)c2)S(=O)(=O)c2ccc(C)cc2)cc1` is listed with -2.7	·	·	i	0.98	97.0	·
`COc1cccc(NS(=O)(=O)c2c(C)cc(C)cc2C)c1` is listed with -8.8	16.7	132.9	i	1.09	110.0	-1.5
`CN(C)c1cccc(C(=O)N/N=C/c2ccccc2F)c1` is listed with -2.3	53.3	99.7	i	0.86	99.9	·
